Screening data as filed in PubChem.
gsp antag: qHTS for Antagonists of gsp, the Etiologic Mutation Responsible for Fibrous Dysplasia/McCune-Albright Syndrome: qHTS. 340,000 tested, 0.4% active. gsp-mutant cells, cAMP HTRF, 30 min; control for the full effect not named in the record. Potency, µM (top dose mostly 76.9 µM), for inactives: top-dose activity change, negative = inhibition, actives largely listed as inhibitors; active = falling curve of any shape with a large fitted effect; inconclusive = falling curve, mostly with a smaller effect; inactive = flat or rising curve; cell line not stated here;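 further: intracellular cAMP measured with PDE inhibitor Ro 20-1724 present during compound exposure; potency means the concentration at half of the fitted maximal effect; on the % scale 0 is the no-effect control and ±100 the full control effect; nearly all actives have a fitted effect of over 65% in size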
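HTRF cAMP measurement after 30 min RT detection following 30 min, 37C compound treatment alongside […] (added as 300 uM solution) in G418-selected cells seeded at 2000/well and grown 16–24 h.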
ClpP mod: qHTS Assay for Activators of ClpP. 340,000 tested, 1.9% active. Potency, µM (doses to about 57.5 µM), for inactives: at the top dose activity change, negative = active. purified B. subtilis ClpP, FRET peptide cleavage, 20 min; active = well fitted falling curve with a large enough effect; inconclusive = small, poorly fitted or top-dose-only effect; inactive = no such curve, though single readings can be large or run the other way; further: potency means the concentration at half of the fitted maximal effect; the source files actives as falling curves though it sought activators and does not explain the sign; nearly all actives have a fitted effect of over 65% in size; many hits overshoot -100%
Target sequence (P80244 whole entry, looked up): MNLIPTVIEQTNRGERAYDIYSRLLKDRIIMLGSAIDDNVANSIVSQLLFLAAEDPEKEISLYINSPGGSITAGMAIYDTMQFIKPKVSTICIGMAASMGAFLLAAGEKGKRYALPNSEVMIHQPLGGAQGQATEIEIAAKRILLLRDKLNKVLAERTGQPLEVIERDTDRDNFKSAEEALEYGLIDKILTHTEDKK
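Purified B. subtilis ClpP, 10 microg/mL final in Tris/HCl pH8 with KCl, BSA, glycerol and Tween-20, cleaved an Abz/nitrotyrosine-quenched decapeptide. Fluorescence (ex 320, em 430) was read at 0 and 20 min at room temperature. Delta was normalized to 5.8 microM ADEP and DMSO/no-enzyme controls.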
Sfp PPTase inh: qHTS Assay for Inhibitors of Bacillus subtilis Sfp phosphopantetheinyl transferase (PPTase); 310,000 tested, 3.5% active; Biochemical Sfp PPTase activity, qHTS; 4'-phosphopantetheinyl transferase ffp (Bacillus subtilis), Q9F4F7; Potency, µM, for the others: max response, negative = inhibition, most hits filed as inhibitors; active means well fitted inhibition curve with a large enough effect; inconclusive means small, poorly fitted or top-dose-only effect, or another doubt; inactive means no such curve, though single readings can be large or run the other way;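 further: the enzyme is Sfp with the accession as filed and its product quenches rhodamine fluorescence; potency means the concentration at half of the fitted maximal effect; 0% = enzyme reaction without inhibitor and -100% = no enzyme wells; top concentration of the series not given in the record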
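After 15 min at room temperature with compound, 15 nM Sfp received 5 uM rhodamine-CoA plus 12.5 uM BHQ-2-ybbR (50 mM Hepes pH 7.6, 10 mM MgCl2). Rate came from the fluorescence difference over 30 min, ex 525/em 598 nm.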
D2 agonist: Beta-Arrestin HTS for Positive Allosteric Modulators of the Human D2 Dopamine Receptor: Agonists; D(2) dopamine receptor (Homo sapiens), P14416; DiscoveRx PathHunter D2 beta-arrestin, luminescence, 90 min; 100% = 57 uM dopamine signal; activation, % (concentration not given with the values); 360,000 tested, 0.084% active; in the data active = activation above about 40%; inconclusive = about 15% to 40%; inactive = below about 15%; further: compound concentration not given in the record; the text of the record calls up to 30% inactive
Target sequence (P14416 whole entry, looked up): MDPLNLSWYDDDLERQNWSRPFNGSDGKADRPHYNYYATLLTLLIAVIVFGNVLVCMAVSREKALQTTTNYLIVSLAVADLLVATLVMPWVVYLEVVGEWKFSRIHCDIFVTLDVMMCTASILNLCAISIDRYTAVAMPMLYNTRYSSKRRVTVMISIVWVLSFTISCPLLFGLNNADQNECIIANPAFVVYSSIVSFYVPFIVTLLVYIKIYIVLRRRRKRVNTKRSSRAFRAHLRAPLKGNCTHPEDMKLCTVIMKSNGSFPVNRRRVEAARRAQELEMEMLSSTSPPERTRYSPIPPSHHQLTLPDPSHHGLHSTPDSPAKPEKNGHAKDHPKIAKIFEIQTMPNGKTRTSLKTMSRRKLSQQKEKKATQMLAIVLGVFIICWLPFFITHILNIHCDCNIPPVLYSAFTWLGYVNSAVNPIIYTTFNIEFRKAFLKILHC
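Agonist mode: compounds alone added to overnight-plated D2 PathHunter cells for 90 min at 37 C, with 57 uM final dopamine (EC100) defining full response. Beta-arrestin recruitment detected by chemiluminescent reagent, read after 1 h at ambient temperature.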
gsp agonist: qHTS for Agonist of gsp, the Etiologic Mutation Responsible for Fibrous Dysplasia/McCune-Albright Syndrome: qHTS; gsp mutant cells, cAMP HTRF, 30 min; control for the full effect not named in the record; Potency, µM (highest dose often 76.9 µM), inactives show at the top dose activation (cAMP increase), hits mostly activators; 340,000 tested, 0.13% active; AID 624287, 2012; active = well fitted activation curve with a large enough effect; inconclusive = small, poorly fitted or top-dose-only effect, or another doubt; inactive = no such curve, though single readings can be large or run the other way; cell line not stated here;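 further: phosphodiesterase inhibitor Ro 20-1724 added with compounds to block cAMP breakdown; potency means the concentration at half of the fitted maximal effect; nearly all actives have a fitted effect of over 60% in size; about a fifth of the inactives were tested at one dose only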
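Cells in DMEM/10% FBS with G418 were pretreated with compounds in DMSO plus […] (300 uM stock) for 30 min at 37C. cAMP was measured by HTRF (cAMP-d2 plus anti-cAMP antibody-K) after 30 min at room temperature.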
Menin MLL FP FL: qHTS Assay for Inhibitors Targeting the Menin-MLL Interaction in MLL Related Leukemias: Competition With Fluorescein Labeled MLL-derived Peptide. Fluorescence polarization, fluorescein-MLL peptide displacement from menin. FP activity change, % at 61.4 µM. 290,000 tested, under 10 active. AID 1766, 2009; inconclusive = falling polarisation curve, or a change in total fluorescence; inactive = total fluorescence flat and polarisation flat or rising; no compound was filed as active; the % refers to the polarisation; negative = inhibition;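 further: % of control where 0% means no effect; inhibitors lower the polarisation; unlabelled MLL peptide was the positive control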
PINK1 expr mod: A Quantitative High throughput Screen to Identify Chemical Modulators of PINK1 Expression | PINK1 immunofluorescence, high-content cytometry, 24 h | Potency, µM (series often up to 76.6 µM), inactives show top-dose activation (PINK1 increase), most hits filed as activators | 410,000 tested, 0.2% active | AID 624263, 2012; active = well fitted activation curve with a large enough effect; inconclusive = small, poorly fitted or top-dose-only effect; inactive = flat fitted curve, though single readings scatter; cell line not stated here;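 further: potency means the concentration at half of the fitted maximal effect; % of control where 0% means no effect; nearly all actives have a fitted effect of over 65% in size; a mitochondrial uncoupler was the plate control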
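Readout is PINK1 immunofluorescence, quantified alongside mitochondrial, cell and nuclear markers by laser-scanning microplate cytometry. Cells from a stable line were exposed to compound titrations (5 concentrations) for 24 hours, with CCCP controls.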
Active calls of the source: *; ? = inconclusive; . = not tested or not shown; & = joins results of further samples; [ ] = another dose, or the depositor's remark.

smiles,gsp antag,ClpP mod,Sfp PPTase inh,D2 agonist,gsp agonist,Menin MLL FP FL,PINK1 expr mod
CC1CN(S(=O)(=O)c2ccc(C(=O)Nc3ccc(S(=O)(=O)Nc4ncccn4)cc3)cc2)CC(C)O1 (stereo not drawn),5%,-1.3%,27%,-0.7,-31%[inhibitor],.,-0.4%
COc1ccc(CCNC(=O)COC(=O)/C=C/c2ccc3c(c2)OCO3)cc1,0%,.,.,-1.8,-24%,.,-1.4%
CCOc1ccc(N2C(=O)Nc3ccccc3C2(O)C(=O)NCc2ccc(F)cc2)cc1 (stereo not drawn),0%,-0.9%,11%,-3.3,15%[15.4 µM],3.9,7.4%
CCCCNS(=O)(=O)c1ccc2nc(SCC(=O)Nc3ccccc3)[nH]c2c1,-4%,-2.9%,-6%,2.1,?,.,0.0%
O=Cc1cccn1Cc1ccccc1[N+](=O)[O-],8%,-0.5%,7%,-1.7,-12%,2.9,-1.4%
O=C1c2ccccc2C(=O)N1Cc1ccco1,4%,-1.7%,11%,-0.7,-13%,4.9,0.8%
CS(=O)(=O)N(CC(=O)N1CCCCC1)c1cccc(F)c1,10%,.,-6%,-1.0,-59%[inhibitor],1.4,-0.7%
CCOC(=O)[C@H]1NN=C(C(=O)OC)[C@@H]1c1ccccc1,20%,-2.7%,4%,0.1,1%,-5.7,2.1%
CC(CNC1CCCCC1)OC(=O)c1ccc([N+](=O)[O-])cc1 (stereo not drawn),-1%,-1.0%,.,-1.5,10%,.,-3.6%
O=C(Nc1ccccc1)Nc1ccccc1C(=O)NCCCN1CCOCC1,-2%,0.1%,8%,-6.6,-4%,1.0,0.8%
Cc1cc(C)n2nc(S(=O)(=O)Nc3c(Cl)cccc3Cl)nc2n1,-3%,.,23%,-3.8,2%[15.4 µM],1.1,-0.6%
CSCCC(NS(=O)(=O)c1ccc(Cl)c(Cl)c1)C(=O)O (stereo not drawn),-2%,0.6%,2%,-4.1,18%,-3.3,0.2%

smiles,gsp antag,ClpP mod,Sfp PPTase inh,D2 agonist,gsp agonist,Menin MLL FP FL,PINK1 expr mod
CCC1SC(CC)C(=O)N(CC(=O)NCc2ccc(F)cc2)C1=O (stereo not drawn),9%,-1.9%,14%,-1.8,1%[15.4 µM],-3.1,0.5%
CCOC(=O)c1ccc(N2C(=O)C(C)=C(C)C2=O)cc1,1%,-2.1%,8%,-2.8,3%,-0.5,2.4%
COc1cc(C(O)c2nc(-c3cccc(C#N)c3)cs2)ccc1F (stereo not drawn),.,1.7%,.,1.7,.,.,0.4%
CC(=O)C(C)Sc1nnc(-c2ccccc2F)n1C1CC1 (stereo not drawn),17%,.,3%,-2.1,-20%[15.4 µM],0.4,5.1%
CC(C)N(Cc1ccccc1)C(=O)c1cnc2n(c1=O)CCS2,-1%,-1.5%,2%,-5.0,2%,0.7,-0.5%
Cc1ccc(C(=O)NCCOc2cccc3cccnc23)cc1Cl,1%,.,-6%,-1.5,15%[15.4 µM],1.2,2.3%
CCCCCN(C(=O)CN1CCC(Cc2ccccc2)CC1)c1c(N)n(CCCC)c(=O)[nH]c1=O,.,.,-5%,-4.0,-24%[15.4 µM],?,0.0%
COc1ccc(Cl)cc1C(=O)OCC(=O)Nc1sccc1C(N)=O,-1%,0.4%,.,12,3%[15.4 µM],.,?
Cc1ccc(CC(=O)Nc2ccc(OC(F)F)c(Cl)c2)cc1C,2%,.,6%,5.8,4%[15.4 µM],4.0,1.7%
CCOC(=O)C1CCCN(C(=O)c2ccncc2)CC1 (stereo not drawn),.,0.8%,.,-3.8,.,.,0.6%
Cc1cccc(Nc2nc(NCC3CCCO3)nc(N)c2[N+](=O)[O-])c1 (stereo not drawn),-10%,0.8%,19%,-5.8,-2%,5.1,12%
C=CCNc1nnc(SCC(=O)Nc2ccccc2OC)c2ccccc12,-27%,-5.1%,-8%,-2.1,16%[15.4 µM],0.3,13%

smiles,gsp antag,ClpP mod,Sfp PPTase inh,D2 agonist,gsp agonist,Menin MLL FP FL,PINK1 expr mod
COc1cccc(-c2nc3c(c(SCC(=O)N4CCOCC4)n2)Cc2c(CO)cnc(C)c2O3)c1,?,-0.6%,16%,10,36%,.,5.4%
O=c1cc(CN2CCN(Cc3ccccc3)CC2)c2cc3c(cc2o1)CCC3,-6%,-0.3%,-11%,-7.4,0%[15.4 µM],7.1,2.3%
N#C/C(=C/c1ccco1)c1nc2ccccc2s1,-12%,1.5%,-23%,-5.9,-61%[inhibitor],?,-0.3%
CCCN(C(=O)Cn1c(C(F)(F)F)nc2ccccc21)C1CCS(=O)(=O)C1 (stereo not drawn),11%,0.6%,.,-4.4,18%,.,2.6%
COc1ccccc1C(CNc1ncccc1[N+](=O)[O-])N(C)C (stereo not drawn),3%,.,6%,-6.6,10%[15.4 µM],-4.0,-1.0%
N#Cc1ccc(CSc2ccc(S(=O)(=O)N3CCCC3)cn2)cc1,-10%,0.4%,.,-5.0,-4%,.,-0.8%
N/C(=N\OC(=O)CC1CCCCC1)c1ccc(Br)cc1,15%,0.9%,22%,2.7,9%,.,13%
COc1ccc(NC(=O)CSc2nnc3ccc(-c4cccnc4)nn23)cc1OC,9%,0.3%,.,1.4,20%[15.4 µM],.,-0.6%
CC(=O)Nc1ccc(S(=O)(=O)N2CCC(N3CCCCCC3)CC2)cc1,19%,-0.5%,15%,5.1,-4%,5.3,2.1%
CN(C(=O)COC(=O)CCC(=O)c1ccc(Cl)cc1)c1c(N)n(Cc2ccccc2)c(=O)[nH]c1=O,5%,-2.5%,.,0.7,-12%,.,-0.5%
COc1ccc(S(=O)(=O)N2CCN(CCCOc3ccc(F)cc3)CC2)cc1OC,-8%,.,11%,-2.2,-22%,8.8,3.4%
COc1ccc(C(O)(CC(C)C)C(CN2CCOCC2)c2ccccc2)cc1 (stereo not drawn),-7%,.,10%,2.7,12%[15.4 µM],-3.6,1.1%

smiles,gsp antag,ClpP mod,Sfp PPTase inh,D2 agonist,gsp agonist,Menin MLL FP FL,PINK1 expr mod
CCOC(=O)c1ccc(NC(=O)c2nc[nH]c2C(=O)NCCNC(=O)c2[nH]cnc2C(=O)Nc2ccc(C(=O)OCC)cc2)cc1,-5%,-2.3%,.,10,.,.,3.3%
O=C(Nc1ccc2nc(-c3cccnc3)[nH]c2c1)c1ccco1,-2%,-4.9%,23%,-2.4,?,2.5,2.5%
NS(=O)(=O)c1cc(C(=O)NC2CCSc3ccccc32)ccc1Cl (stereo not drawn),5%,.,11%,-5.1,-10%[15.4 µM],-0.9,0.7%
[O-]c1c[n+](-c2ccccc2)no1,9%,-3.0%,1%,-3.5,5%,0.0,3.0%
C#CC(CC)(CC)NC(=O)/C=C/C(=O)O,4%,0.3%,-1%,1.3,0%[15.4 µM],2.1,-1.4%
c1coc(CNCc2cccs2)c1,10%,0.4%,-3%,-0.9,-4%,-0.3,0.7%
C/C(=N\NC(=O)Cn1ccc(C(F)(F)F)n1)c1ccco1,-11%,.,-20%,5.5,-5%[15.4 µM],-4.5,0.6%
COc1cc(NC(=S)NCCN2CCOCC2)cc(OC)c1OC,14%,-2.4%,-5%,-4.0,?,-5.9,-0.6%
Cc1c(NC(=O)c2cccc(F)c2)c(=O)n(-c2ccccc2)n1C,2%,-0.1%,13%,0.1,1%,7.8,-0.7%[38.3 µM]
O=C1CN(C(=O)COc2ccc(F)cc2Br)c2ccccc2N1,-5%,0.7%,-12%,-0.8,-15%,1.7,3.1%
CC(=O)NCCC(=O)N(Cc1ccccc1)c1nc2c(C)cccc2s1,-11%,-0.6%,-3%,1.8,20%,.,0.7%
O=C(NC(=S)N1CCCC1)c1ccccc1Cl,10%,-1.2%,14%,1.5,-39%[inhibitor],.,1.4%

smiles,gsp antag,ClpP mod,Sfp PPTase inh,D2 agonist,gsp agonist,Menin MLL FP FL,PINK1 expr mod
COc1ccc(N2C(=O)C3CCCN3C2c2ccccc2)cc1 (stereo not drawn),8%,1.3%,4%,-2.8,28%,1.2,0.6%
Cn1nc(OC(=O)Nc2cccc(Cl)c2)cc1C(F)(F)F,4%,-2.8%,2%,4.2,?,1.2,8.0%
S=C(NCCc1ccccc1)N/N=C/c1cccc(Cl)c1Cl,9%,1.8%,0%,1.5,10%,2.2,6.1%
CC1(C)N=C(N)N=C(N)N1c1cccc(C#N)c1,-2%,-0.9%,.,2.5,-25%,.,-5.4%
c1ccc(N2CCN(c3ccccc3)C2c2ccncc2)cc1,-20%,-0.1%,79µM*,0.9,5%,-6.1,.
Cc1occc1-c1nnc(SCC(=O)Nc2ccccn2)o1,-4%,.,12%,-6.7,1%[15.4 µM],0.4,0.8%
CCn1c(N2CCN(C(=S)Nc3ccc(OC)cc3)CC2)nc2ccccc21,-12%,-3.6%,14%,-1.8,16%,0.7,-0.4%
O=P(Cc1cccc2ccccc12)(c1ccccc1)c1ccccc1,-14%,.,.,-4.1,2%,.,-1.7%
COc1ccc(C(=O)NCC(=O)OCc2ccc(Cl)cc2Cl)cc1OC,-2%,-3.2%,.,3.0,-7%,.,0.0%
COc1ccc(-n2c(SCC(=O)N/N=C/c3ccccc3OCC(=O)O)nc3ccccc3c2=O)cc1,7%,-1.3%,?,0.7,-3%,4.8,0.8%
CCCC[C@H]1COCCS(=O)(=O)N1Cc1cccc(F)c1,4%,0.8%&-0.2%,2%,1.6,2%,3.8,0.5%
